# Assay outcomes: PubChem BioAssay, National Center for Advancing Translational Sciences (NCATS)
# Menin-MLL FL inh: displaces fluorescein MLL peptide from human menin; Fluorescence polarization, fluorescein-MLL peptide displacement from menin; FP activity change, % at 61.4 µM; 290,000 tested, under 10 active; inconclusive = falling polarisation curve, or a change in total fluorescence; inactive = total fluorescence flat and polarisation flat or rising; no compound was filed as active; the % refers to the polarisation; negative = inhibition;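 also: % of control where 0% means no effect; inhibitors lower the polarisation; unlabelled MLL peptide was the positive control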
# Sfp inh: Sfp phosphopantetheinyl transferase inhibition | Q9F4F7 | Biochemical Sfp PPTase activity, qHTS | Potency, µM, for inactives: max response, negative = inhibition, most hits filed as inhibitors | 3.5% of 310,000 active | AID 1490; active = well fitted inhibition curve with a large enough effect; inconclusive = small, poorly fitted or top-dose-only effect, or another doubt; inactive = no such curve, though single readings can be large or run the other way;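 also: the enzyme is Sfp with the accession as filed and its product quenches rhodamine fluorescence; potency is read from the fitted curve at half-maximal effect; 0% = enzyme reaction without inhibitor and -100% = no enzyme wells; top concentration of the series not given in the record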
#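 Step 1, compound plus 15 nM Sfp-PPTase, 15 min, room temperature. Step 2, add rhodamine-CoA (5 uM) and BHQ-2-YbbR (12.5 uM). Step 3, read 525/598 nm fluorescence at 0 and 30 min.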
# gsp antag: gsp mutant antagonism; gsp-mutant cells, cAMP HTRF, 30 min; control for the full effect not named in the record; Potency, µM (titrated, usually from 76.9 µM), for the others: at the top dose activity change, negative = inhibition, hits mostly inhibitors; 0.4% of 340,000 active; AID 624288; active = falling curve of any shape with a large fitted effect; inconclusive = falling curve, mostly with a smaller effect; inactive = flat or rising curve; cell line not stated here;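 also: intracellular cAMP measured with PDE inhibitor Ro 20-1724 present during compound exposure; potency is read from the fitted curve at half-maximal effect; % is scaled to controls: 0 for no effect and ±100 for the full control effect; nearly all actives have a fitted effect of over 65% in size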
#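 HTRF cAMP measurement after 30 min RT detection following 30 min, 37C compound treatment alongside […] (added as 300 uM solution) in G418-selected cells seeded at 2000/well and grown 16–24 h.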
# TRPML1 blocker: human mucolipin-1 channel inhibition | activity change, negative = inhibition, % (concentration not given with the values) | 0.02% of 390,000 active | Q9GZU1 | TRPML1-inducible cells, Ca2+ dye fluorescence, FDSS; hits give low values; inhibition of EC80 agonist-evoked calcium signal; in the data active means activity change below about -50%; inconclusive means about -30% to -50%; inactive means above about -30%;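 also: stimulus is agonist 54-4 at its EC80 concentration; % is scaled to controls: 0 for no effect and ±100 for the full control effect; compound concentration not given in the record; the text of the record puts the active cut at -80%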
#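 Tet-induced TRPML1-DL cells loaded with Ca8 no-wash calcium dye were read kinetically on FDSS. Compound addition was followed by EC80 agonist 54-4 (4 uM final); inhibition was read over 110 s.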
# gsp agonist: activates gsp, the McCune-Albright syndrome mutation. gsp mutant cells, cAMP HTRF, 30 min; control for the full effect not named in the record. Potency, µM (highest dose often 76.9 µM), for the others: at the highest dose activation (cAMP increase), hits mostly activators. 0.13% of 340,000 active. AID 624287; active = well fitted activation curve with a large enough effect; inconclusive = small, poorly fitted or top-dose-only effect, or another doubt; inactive = no such curve, though single readings can be large or run the other way; cell line not stated here;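 also: phosphodiesterase inhibitor Ro 20-1724 added with compounds to block cAMP breakdown; potency is read from the fitted curve at half-maximal effect; nearly all actives have a fitted effect of over 60% in size; about a fifth of the inactives were tested at one dose only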
#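 Cells in DMEM/10% FBS with G418 were pretreated with compounds in DMSO plus […] (300 uM stock) for 30 min at 37C. cAMP was measured by HTRF (cAMP-d2 plus anti-cAMP antibody-K) after 30 min at room temperature.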
# ClpP mod: qHTS Assay for Activators of ClpP. ATP-dependent Clp protease proteolytic subunit (Bacillus subtilis (strain 168)), P80244. purified B. subtilis ClpP, FRET peptide cleavage, 20 min. Potency, µM (series often up to 57.5 µM), inactives show at the top dose activity change, negative = active. 1.9% of 340,000 active. AID 651965, 2013; active = well fitted falling curve with a large enough effect; inconclusive = small, poorly fitted or top-dose-only effect; inactive = no such curve, though single readings can be large or run the other way; also: potency is read from the fitted curve at half-maximal effect; the source files actives as falling curves though it sought activators and does not explain the sign; nearly all actives have a fitted effect of over 65% in size; many hits overshoot -100%
# Target sequence (P80244 whole entry, looked up): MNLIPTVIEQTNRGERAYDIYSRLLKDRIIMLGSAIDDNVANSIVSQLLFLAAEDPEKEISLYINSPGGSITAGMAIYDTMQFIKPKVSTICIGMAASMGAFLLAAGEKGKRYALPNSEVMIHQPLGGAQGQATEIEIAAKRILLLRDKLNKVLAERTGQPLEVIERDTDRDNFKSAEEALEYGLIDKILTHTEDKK
#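 Purified B. subtilis ClpP, 10 microg/mL final in Tris/HCl pH8 with KCl, BSA, glycerol and Tween-20, cleaved an Abz/nitrotyrosine-quenched decapeptide. Fluorescence (ex 320, em 430) was read at 0 and 20 min at room temperature. Delta was normalized to 5.8 microM ADEP and DMSO/no-enzyme controls.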
# TRPV1 potentiator: potentiators of human vanilloid receptor 1 (TRPV1); 0.02% of 320,000 active; Q8NER1; potentiation, % at 8.33 µM; TRPV1-expressing cells, Fluo-8 calcium influx, capsaicin EC20 potentiation; host cell line not named in the record; control for the full effect not named in the record; AID 540277; active means potentiation above 80%; inconclusive means 30% to 80%; inactive means below 30%; also: 0% is about no effect
# Target sequence (Q8NER1 whole entry, looked up): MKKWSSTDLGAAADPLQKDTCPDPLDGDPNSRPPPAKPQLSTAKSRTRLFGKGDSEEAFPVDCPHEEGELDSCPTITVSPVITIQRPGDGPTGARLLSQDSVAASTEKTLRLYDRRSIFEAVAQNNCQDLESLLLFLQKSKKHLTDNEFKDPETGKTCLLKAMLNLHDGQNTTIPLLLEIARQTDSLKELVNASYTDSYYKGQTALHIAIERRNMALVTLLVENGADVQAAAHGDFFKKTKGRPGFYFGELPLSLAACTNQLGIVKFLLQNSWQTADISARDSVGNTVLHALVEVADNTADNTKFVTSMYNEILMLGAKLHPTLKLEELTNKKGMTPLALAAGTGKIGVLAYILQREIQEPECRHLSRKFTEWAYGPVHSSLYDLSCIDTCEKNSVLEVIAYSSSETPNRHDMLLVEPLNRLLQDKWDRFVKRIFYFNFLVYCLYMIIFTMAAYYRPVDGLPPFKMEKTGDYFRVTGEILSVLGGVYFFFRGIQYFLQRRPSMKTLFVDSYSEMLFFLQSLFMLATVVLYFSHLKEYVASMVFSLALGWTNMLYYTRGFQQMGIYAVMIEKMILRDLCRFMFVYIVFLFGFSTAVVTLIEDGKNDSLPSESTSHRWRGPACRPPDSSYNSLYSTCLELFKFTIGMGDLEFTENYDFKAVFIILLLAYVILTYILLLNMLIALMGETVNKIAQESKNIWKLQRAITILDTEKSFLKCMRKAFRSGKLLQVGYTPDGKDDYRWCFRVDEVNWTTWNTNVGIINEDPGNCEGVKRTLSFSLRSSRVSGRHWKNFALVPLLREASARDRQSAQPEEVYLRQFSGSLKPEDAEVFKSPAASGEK
#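 Cells expressing TRPV1 were dye-loaded with Fluo-8 and read kinetically: 10 s baseline, 3 min after compound (agonist portion), then 2 min after EC20 capsaicin (allosteric enhancer portion). Calcium-bound dye fluorescence at 480/520 nm.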
# * hit, by the source's call; u = inconclusive; x = no result given; & = joins results of further samples; [ ] = another dose, or the depositor's remark.
Compound	Menin-MLL FL inh	Sfp inh	gsp antag	TRPML1 blocker	gsp agonist	ClpP mod	TRPV1 potentiator
COc1ccc(CCNC(=O)Nc2ccccc2[N+](=O)[O-])cc1	0.6	19%	9%	-1	3%[15.4 µM]	x	5
COc1ccc(C(=O)NC2CCCCCCC2)cc1OC	x	x	0%	27	-6%[15.4 µM]	0.9%	x
COc1ccc2c(c1)C(CC(=O)NN)CCC2 (stereo not drawn)	x	x	13%	-7	8%	x	x
O=C(CCc1ccc(S(=O)(=O)N2CCOCC2)cc1)OCC(=O)c1ccccc1F	x	x	0%	-5	1%	2.1%	x
COC(=O)COc1cccc(NC(=O)c2ccc(C)cc2)c1	1.7	-5%	-22%	-2	2%	0.2%	-18
CC(=O)Oc1ccc2c(C)c(CC(=O)N3CCN(C(=O)C4COc5ccccc5O4)CC3)c(=O)oc2c1C (stereo not drawn)	-1.6	10%	u	4	14%	3.6%	-6
CCn1c(SCC(=O)Nc2ccc(S(N)(=O)=O)cc2)nnc1-c1ccccc1OC	4.7	4%	1%	7	28%	-0.5%	0
NC(=O)CSc1nnc2n(N)c(=O)c3ccccc3n12	-0.2	-4%	9%	1	u	-5.3%	1
CC(C)(C)c1nc(SCC(=O)c2ccccc2)c2ccccc2n1	0.0	u	-17%	-11	4%[15.4 µM]	-2.7%	-1
CC(C)CCSc1nc2ccccc2[nH]1	0.7	-4%	9%	1	8%[15.4 µM]	-1.8%	-9
Cc1ccc(S(=O)(=O)N2CCOCC2)cc1C(=O)OC(C)C(=O)NC1CCCC1 (stereo not drawn)	x	x	6%	-11	18%	1.6%	3
Cc1ccc(-c2cnc(NC(=O)CCC(=O)N(C)Cc3ccccc3)n2C)cc1	-0.3	12%	-5%	8	-2%	-6.7%	-7
CC(=O)NNC(=O)N1Cc2ccccc2Oc2ccc(Cl)cc21	u	3%	0%	2	x	-3.0%&2.9%	x
CCc1nnc(N/N=C/c2ccccc2F)n1N	-1.1	50µM*	-13%	8	16%[15.4 µM]	x	8
CC1CCCC(NC(=O)CN2C(=O)NC(c3ccccc3)(c3ccccc3)C2=O)C1C (stereo not drawn)	x	x	-7%	-11	5%[15.4 µM]	0.8%	-12
CCOc1ccc(N(CC(=O)Nc2cccc(C)c2C)S(=O)(=O)c2c(C)[nH]c(=O)[nH]c2=O)cc1	2.1	20%	-1%	30	3%	-2.6%	22
O=C(CSc1nnc(-c2ccccc2Br)o1)Nc1cccc2ccccc12	-0.2	4%	0%	14	4%	-0.5%	16
CCOc1ccccc1CNn1cnnc1SCC(=O)NC(C)(C)C	x	x	x	9	-127%[inhibitor]	0.1%	x
CCOC(=O)c1sc(N)c(C#N)c1CSc1nc2ccc(OCC)cc2[nH]1	6.5	7%	-23%	-8	2%	-0.3%	13
Fc1ccc(N2CCN(c3nc(-c4ccco4)cc(C(F)(F)F)n3)CC2)cc1	0.3	-2%	-3%	-13	0%	-3.5%	3
COc1ccccc1NC(=O)Nc1ccc(C(=O)N2CCCCC2)cc1	1.1	3%	0%	10	-48%[inhibitor]	-0.4%	-2
CCc1noc(C)c1C(=O)N1CCCC(Nc2cccc(F)c2)C1 (stereo not drawn)	x	x	x	-10	1%	0.0%	x
CCCn1c(N)c(C(=O)CSc2nc3ccccc3c(=O)n2-c2ccc(OC)cc2)c(=O)[nH]c1=O	-5.4	11%	8%	1	28%[15.4 µM]	-3.3%	3
CCN(CC(=O)Nc1ccc(OC)cc1)C(=O)c1ccc(OCc2c(C)noc2C)cc1	x	x	-2%	5	-9%[15.4 µM]	x	x
CCOc1cc(CNc2ccc3c(c2)OCCO3)cc(Br)c1OC	0.6	-6%	1%	4	-47%[inhibitor]	1.4%	4
COc1ccc(CN2CCCN(S(=O)(=O)c3ccc(Br)cc3)CC2)cc1	0.0	-5%	3%	29	3%	x	-3
Cc1ccc(NS(=O)(=O)c2ccc(CCC(=O)N3CCOCC3)cc2)cc1	-0.6	-21%	-1%	3	7%	-3.3%	-23
O=C(/C=C/c1cccc([N+](=O)[O-])c1)NCCSCc1ccco1	4.1	u	-2%	15	u	-1.6%	-10
CCN(CC)CCn1cnc2c([nH]c3cccc(OC)c32)c1=O	2.3	12%	5%	11	-21%	u	7
Cc1ccccc1C(=O)OCC(=O)NCC1COc2ccccc2O1 (stereo not drawn)	x	x	-3%	21	4%	-1.5%	19
CCOC(=O)C1(CCOc2ccccc2)CCN(Cc2cccn2-c2cccnc2)CC1	-3.0	3%	2%	33	-25%	x	-10
O=c1[nH]c(/C(Cl)=C/c2cc(Cl)ccc2O)nc2cc(Cl)ccc12	6.8	-14%	-31%	15	21%	-1.6%	1
Cc1c(C)c2ccc(OC(C)C(=O)NC3CCN(Cc4ccccc4)CC3)cc2oc1=O (stereo not drawn)	x	14%	-7%	-12	3%	x	3
CNC(=O)c1cc(NC(=O)N(CCC#N)CCN(C(=O)NC(Cc2ccccc2)C(=O)NC(CC(C)C)C(=O)NC)c2ccccc2)ccc1OC (stereo not drawn)	x	x	u	-2	-2%	u	x
COc1cc(/C=N/n2nnnc2N)ccc1OC(C)C	2.5	21%	7%	-25	13%	x	3
O=c1cc(N2CCCCC2)nc2n1CCCS2	6.1	-10%	-31%	-3	-4%	-2.7%	5
CC(C)(C)c1ccc(S(=O)(=O)N2CCN(C(=O)c3ccc4c(c3)C(=O)N(Cc3ccncc3)C4=O)CC2)cc1	x	x	2%	25	-40%	-0.5%	1
COc1ccc(CNC(=O)CCCn2nc([N+](=O)[O-])cc2C)cc1	1.0	26%	8%	26	u	-2.6%	-1
Cc1ccccc1-n1nc(C)c(N=O)c1N	0.1	19%	5%	16	-20%	-1.0%	-5
O=C(CN1CCCN(S(=O)(=O)c2ccc(F)cc2)CC1)Nc1ccccc1Br	-2.2	-1%	-17%	15	1%	-0.4%	-5
CCOc1ccc(NC(=S)Nc2ccc(C)c([N+](=O)[O-])c2)cc1	1.6	-4%	-29%	8	-48%[inhibitor]	1.0%	28
O=S(=O)(c1cccc2cccnc12)n1cnc2ccccc21	1.4	9%	1%	21	9%	-1.6%	-9
CC(=NNC(=S)N1CCCCCC1)c1cccc2cccnc12	x	x	-3%	3	-33%[inhibitor]	-0.5%	x
O=C(CNC(=O)c1cc(Cl)cc([N+](=O)[O-])c1)OCC(=O)N1CCCCC1	x	x	-1%	4	-5%[15.4 µM]	0.4%	-27
Cc1cc(C)n(-c2nncc(-c3ccccc3)n2)n1	0.2	-2%	-1%	20	-17%	-1.4%	0
COc1ccc(S(=O)(=O)N2CCCCC2)cc1NC(=O)C1CCCC1	x	x	-5%	-7	17%	1.1%	-12
O=C(C1CCCN(c2ncnc3c2nc2n3CCCCC2)C1)N1CCN(c2ccccc2F)CC1 (stereo not drawn)	x	2%	-16%	-9	26%	-4.1%	-12
OC(CNC1CCCC1)COc1ccccc1Br (stereo not drawn)	1.1	-4%	11%	8	-9%	-2.5%	1
CC(C)(C)c1csc(CS(=O)(=O)c2ccccn2)n1	4.7	u	12%	4	12%	0.3%	-43
Cc1ccc(S(=O)(=O)N2CCC(C(=O)NCCN3CCCCCC3)CC2)cc1	2.4	u	10%	26	-25%	-0.2%	-3
COc1ccc(-c2cc(C(=O)Nc3ccc(S(=O)(=O)Nc4onc(C)c4C)cc3)c3ccccc3n2)cc1	1.8	6%	-21%	10	0%	-5.7%	7
CCNC(=O)COC(=O)CNC(=O)c1cc(Cl)cc([N+](=O)[O-])c1	5.8	-23%	11%	2	0%[15.4 µM]	-2.0%	-8
COCCNC(=S)N1CCC(NC(=O)C23CC4CC(CC(C4)C2)C3)CC1	1.2	1%	8%	2	1%[15.4 µM]	28µM*	2
CC(/C=N/NC(=O)C(O)c1ccccc1)=C\c1ccccc1 (stereo not drawn)	1.6	4%	-2%	-12	-7%	0.1%	-5
COc1ccc(NC(=O)CSc2ccc3nnc(CCNC(=O)c4ccccc4)n3n2)cc1	-0.8	13%	5%	-13	5%	-0.5%	4
Cc1ccc(S(=O)(=O)N/N=C/c2c[nH]c3ccccc23)cc1	1.5	-5%	-20%	-1	24%	1.1%	0
CCOc1ccc(CCNC(=O)CS(=O)Cc2nc(-c3ccc(OC)cc3)oc2C)cc1OCC (stereo not drawn)	1.1	4%	-11%	14	23%	-8.9%	u
Cc1ccc(O)c(N=Cc2cccs2)c1	x	-26%	15%	-9	-39%[inhibitor]	-2.2%	-23
COc1ccc(CNCc2cccc3ccccc23)cc1	-3.1	-23%	11%	55	1%	-0.4%	0
CN(C)C(=O)CSc1ccc(S(=O)(=O)N2CCOCC2)cn1	x	x	6%	8	-16%	-0.3%	7

# Next part:
Compound	Menin-MLL FL inh	Sfp inh	gsp antag	TRPML1 blocker	gsp agonist	ClpP mod	TRPV1 potentiator
Cc1cn(CC2COC(C)(C)O2)c(=O)[nH]c1=O (stereo not drawn)	0.9	23%	-2%	-12	u	-0.7%	13
N#CCCN(CCC#N)C(=O)c1ccc(Cl)cc1	-1.4	2%	6%	-7	-40%[inhibitor]	0.6%	3
CCOC(=O)[C@H]1[C@H]2COc3ccc(Br)cc3[C@@H]2N2C(=O)c3ccc(F)cc3NC(=O)[C@@]12C	x	x	0%	1	23%	-3.4%	28
Cc1ccc(N2CC(C(=O)NCCC3=CCCCC3)CC2=O)cc1 (stereo not drawn)	x	x	11%	-4	5%	2.4%	1
O=C1c2ccccc2C(=O)C1C(=O)C1CC1	x	x	-6%	-20	1%	x	x
C[C@@H]1CN(Cc2nc(-c3cccs3)no2)C[C@H](C)O1	0.4	5%	19%	x	-1%	0.8%	-2
